Assay outcomes as filed in PubChem BioAssay.
Marburg entry inh: blocks Marburg virus binding to or entry into cells; Potency, µM (doses to about 37.8 µM), without a hit: at the highest dose activity change, negative = inhibition, most hits filed as inhibitors; hit rate 1.8% among 300,000; AID 540276; Marburg virus pseudotyped entry inhibition, cell reporter; control for the full effect not named in the record; about a third of the inactives were read at about 46 µM; active = well fitted inhibition curve with a large enough effect; inconclusive = small, poorly fitted or top-dose-only effect, or effect the other way; inactive = flat fitted curve, though single readings scatter; tested in HEK293 cells; about a fifth of its hits are not listed in these tables; also: % is scaled to controls: 0 for no effect and ±100 for the full control effect; luciferase read-out
Cruzain Triton: blocks cruzain activity in presence of Triton detergent. Potency, µM, without a hit: max response, negative = inhibition, usual class: inhibitors. purified cruzain, Z-FR-AMC fluorescence, 0.01% Triton. P25779. hit rate 0.43% among 200,000;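 also: plate controls were neutral wells for no effect and buffer without enzyme for full effect; nearly all actives have a fitted effect of over 40% in size; top concentration of the series not given in the record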
Target sequence (P25779 123-467 limits assumed): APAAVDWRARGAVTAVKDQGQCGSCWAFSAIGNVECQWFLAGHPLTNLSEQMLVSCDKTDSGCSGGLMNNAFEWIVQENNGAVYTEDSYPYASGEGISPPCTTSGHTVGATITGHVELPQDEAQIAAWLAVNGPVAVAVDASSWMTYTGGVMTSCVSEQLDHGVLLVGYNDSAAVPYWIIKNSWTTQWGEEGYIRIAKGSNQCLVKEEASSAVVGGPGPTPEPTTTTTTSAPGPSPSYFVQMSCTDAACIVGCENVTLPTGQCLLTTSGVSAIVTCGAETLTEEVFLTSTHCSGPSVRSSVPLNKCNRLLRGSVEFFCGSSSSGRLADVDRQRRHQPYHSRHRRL
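Read-out: AMC fluorescence (360 nm excitation, 450 nm emission), four reads over 2 min, first-to-third difference used. Conditions: cruzain 1.5 nM, Z-FR-AMC 2 uM, pH 5.5 acetate, 5 mM DTT, 0.01% Triton X-100.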
NS1 function inh: inhibitors of influenza NS1 protein function | S. cerevisiae slowed by influenza A NS1, growth recovery by OD600 | Potency, µM (titrated, usually from 46.1 µM), for inactives: at the top dose activity, positive = more growth | hit rate 0.4% among 270,000 | AID 2326; active means well fitted rising curve with a large enough effect; inconclusive means small, poorly fitted or top-dose-only effect; inactive means no such curve, though single readings can be large or run the other way; also: nearly all actives have a fitted effect of over 50% in size
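A cell-based growth assay was used: compounds that relieve NS1-induced slow growth of budding yeast raise OD600. Assay medium was yeast nitrogen base with ammonium sulphate and -URA supplement, pH 6.0, with 2% galactose.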
LASV entry inh: inhibitors of Lassa virus binding or cell entry. hit rate 1.2% among 300,000. Potency, µM (series often up to 37.9 µM), for inactives: top-dose activity change, negative = inhibition, actives largely listed as inhibitors. Lassa virus pseudotype entry inhibition, cell reporter; control for the full effect not named in the record. AID 540256; active means well fitted inhibition curve with a large enough effect; inconclusive means small, poorly fitted or top-dose-only effect, or effect the other way; inactive means flat fitted curve, though single readings scatter; tested in HEK293 cells; also: % is scaled to controls: 0 for no effect and ±100 for the full control effect; nearly all actives have a fitted effect of over 50% in size; luciferase read-out
2A StopGo: FMDV 2A StopGo reporter, luciferase signal; human cells with a luciferase reporter of 2A StopGo recoding; control for the full effect not named in the record; Potency, µM (titrated, usually from 57.9 µM), without a hit: top-dose signal change, negative = less light; hit rate 1.2% among 410,000; active = well fitted falling curve with a large enough effect; inconclusive = small, poorly fitted or top-dose-only effect; inactive = no such curve, though single readings can be large or run the other way; tested in HEK293T cells; also: % is scaled to controls: 0 for no effect and ±100 for the full control effect; nearly all actives have a fitted effect of over 45% in size; luciferase light after 4 h
Cruzain noTriton: cruzain (T. cruzi) inhibition without detergent; P25779; hit rate 2.3% among 200,000; purified cruzain, Z-FR-AMC fluorescence, no detergent; Potency, µM, inactives show max response, negative = inhibition, usual class: inhibitors; AID 1476;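 also: plate controls were enzyme without inhibitor for no effect and buffer without enzyme for full effect; nearly all actives have a fitted effect of over 40% in size; top concentration of the series not given in the record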
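Purified cruzain at 1.5 nM, pre-incubated 15 min with compound at room temperature in 100 mM sodium acetate pH 5.5, 5 mM DTT, 0.00005% Triton X-100. Reaction started with 2 uM Z-FR-AMC; AMC fluorescence increase over 60 s gives rate.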
RE007 growth inh: less growth of the S. pombe RE007 Vpr strain; S. pombe RE007 Vpr strain, BacTiter-Glo ATP luminescence, 24 h; control for the full effect not named in the record; Potency, µM (titrated, usually from 92.2 µM), for the others: top-dose activity change, negative = less growth; hit rate 0.21% among 360,000; AID 651644; active = well fitted falling curve with a large enough effect; inconclusive = small, poorly fitted or top-dose-only effect; inactive = no such curve, though single readings can be large or run the other way;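 also: % is scaled to controls: 0 for no effect and ±100 for the full control effect; nearly all actives have a fitted effect of over 50% in size; the assay follows cell death caused by Vpr and the record does not say whether a fall means rescue or toxicity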
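Fission yeast RE007 carrying one integrated HIV-1 vpr copy, seeded at OD 0.01 in PMG+AL medium with 23 nL pinned compound. Grown 24 h at 30 degrees; viability read by BacTiter-Glo luminescence after 5 min.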
SARS PLpro yeast: blocks SARS-CoV papain-like protease in a yeast assay; S. cerevisiae expressing SARS-CoV PLpro, growth rescue; control for the full effect not named in the record; Potency, µM (titrated, usually from 32.9 µM), for the others: at the top dose activity, positive = growth rescue; hit rate 0.19% among 330,000; AID 485353; active means well fitted rising curve with a large enough effect; inconclusive means small, poorly fitted or top-dose-only effect; inactive means no such curve, though single readings can be large or run the other way; also: 0% is about no effect; nearly all actives have a fitted effect of over 55% in size; growth read by luminescence after 48 h
* hit, by the source's call; ? = inconclusive; · = not tested or not shown; & = joins results of further samples; [ ] = remark or other dose. Unless noted, calls follow the shape of the dose curve; as a rule, active = well fitted curve in the direction sought with a large enough effect; inconclusive = small, poorly fitted or top-dose-only effect, or another doubt; inactive = no such curve, though single readings can be large; an effect the other way counts as inactive or inconclusive. Potency is read from the fitted curve at half-maximal effect.

SMILES	Marburg entry inh	Cruzain Triton	NS1 function inh	LASV entry inh	2A StopGo	Cruzain noTriton	RE007 growth inh	SARS PLpro yeast
C=CCn1c(SCc2ccc(C(=O)Nc3ccccc3)cc2)nnc1-c1ccccc1	?	1.9%	1%	-23%	23%	7%	-6%	8%
CC(=O)Nc1c2c(nn1-c1ccccc1C)CS(=O)C2 (stereo not drawn)	·	·	-6%	·	-13%	·	5%	3%
Cc1ccc(C(=O)N2CC(=O)Nc3ccc(F)cc3C2c2ccccc2)cc1[N+](=O)[O-] (stereo not drawn)	?	-1.3%	3%	?	?	-8%	-8%	4%
O=C(CSc1nnc(Cc2cc(=O)[nH]c(=O)[nH]2)n1-c1ccc(F)cc1)N1CCCCC1	·	2.1%	0%	·	-18%	-2%	5%	-5%
CCc1nnc(SCC(=O)Nc2cccc(C(F)(F)F)c2)c2cc3oc(C)cc3n12	·	-1.6%	·	20%[46.1 µM]	?	-10%	·	·
COc1ccc(CC(=O)Nc2cc3oc4ccccc4c3cc2OC)cc1	2%	-5.4%	13%	5%	67%[activator]	12%	-8%	-2%
Nc1cc2nc[nH]c2cc1N	8%[46.1 µM]	·	·	19%	27%	·	-15%	2%
CC(C)C[C@H]1CN=C(Nc2ccccc2)N1CCCC1CCCCC1	·	·	-21%	·	-23%	·	-8%	3%
CCCCCCNC(=O)c1c(O)c2cccc3c2n(c1=O)CCC3	?	-6.0%	-1%	-16%	-6%	-6%	9%	-2%
COc1cccc(OCc2cc(C(=O)N(C)C3CCOCC3)no2)c1	16%	·	-1%	1%	-3%	·	-17%	1%
CCCCn1[nH]c(-c2ccccc2)cc1=O	-2%	4.9%	?	13%	5%	-1%	-4%	?
COC(=O)CN1C(=O)COc2ccc(S(=O)(=O)N3CCCC3)cc21	·	·	-9%	·	9%	·	2%	4%
COc1cc(C(F)(F)F)c(C(=O)N(C)Cc2cc(Cl)cc(Cl)c2)cn1	·	·	-1%	·	-16%	·	15%	-3%
O=C(NCCN1CCCC1=O)C1CCC(=O)N(CCc2ccc(Cl)cc2)C1 (stereo not drawn)	13%	·	4%	22%	-13%	·	-4%	5%
COc1cccc(-c2csc(NNC(=O)c3cccs3)n2)c1	-1%	·	?	·	16%	·	31%	13%
NC(=O)CSc1nc2sc(-c3ccccc3)cc2c(=O)n1N	11%	-6.5%	4%	?	6%	-12%	-7%	3%
CCN(CC)c1ccc(NC(=O)CSc2nc3nc(C)cc(C)c3c(=O)[nH]2)cc1	-3%[46.1 µM]	·	·	4%	2%	·	?	-15%
N#Cc1nc(-c2ccc(COc3ccc(Cl)cc3)o2)oc1N1CCCCC1	-1%[46.1 µM]	-1.4%	·	-3%[46.1 µM]	?	3%	·	·
CCOc1ccc(-c2nnc(-c3ccncc3)o2)cc1OCC	?	·	5%	-24%[46.1 µM]	3%	·	-17%	-1%
CCC(=O)Nc1ccc2c(c1)ncn2-c1ccccc1	0%	7.0%	-3%	?	15%	4%	-6%	0%
O=c1c2sc(-c3ccccc3)cc2nc2n1CCCCC2	?	·	-35%	-17%	11%	·	-22%	-4%
Cc1ccc(NC(=O)C2(C)Cc3ccccc3C(=O)O2)c(C)c1 (stereo not drawn)	6%[46.1 µM]	-0.7%	·	?	-20%	2%	·	·
COc1cc(C(=O)Nc2ccc(Cl)c(C(F)(F)F)c2)cc(OC)c1OC	-31%	-9.5%	-55%	-5%	?	21%	-2%	-55%
CC(C)Oc1ccccc1-c1nc(SCC(=O)O)n[nH]1	9%	5.5%	6%	?	0%	-12%	16%	5%
C=C(C)CN(CC)c1nc(N)c2c(N)nc3c(c2c1C#N)CC(=O)N3C12CC3CC(CC(C3)C1)C2	2.5µM*	-3.3%	13%	?	?	4µM*	-13%	-3%
(continued)
SMILES	Marburg entry inh	Cruzain Triton	NS1 function inh	LASV entry inh	2A StopGo	Cruzain noTriton	RE007 growth inh	SARS PLpro yeast
Fc1ccc(NC(=S)NCCc2ccc(Cl)cc2)cc1	?	-8.5%	-76%	20%	27%	-3%	-8%	-55%
Cc1nn(C)cc1C(C(=O)NC1CCCCC1)N(C(=O)Cn1nnc2ccccc21)c1ccc(F)cc1 (stereo not drawn)	-15%	5.5%	1%	-18%	·	-24%	6%	5%
Cc1nnc(SCc2cc(=O)c3cc(F)ccc3[nH]2)n1C	·	-0.2%	·	-3%[46.1 µM]	1%	-9%	·	·
Cc1nc2ccccc2c(=O)n1/N=C/c1cn(-c2ccccc2)nc1-c1cccs1	-26%[46.1 µM]	-4.6%	-36%	5%	-8%	4%	-26%	3%
O=C(NCc1ccco1)C1CN(S(=O)(=O)c2ccccc2)CCN1S(=O)(=O)c1ccccc1 (stereo not drawn)	13%&13%	-0.2%	3%	-11%	34%[activator]	4%	5%	4%
O=C1C(c2ccc(F)cc2)N(CCc2ccc(Cl)cc2)C(=O)CN1C1CCCCC1 (stereo not drawn)	·	-0.2%	·	26%[46.1 µM]	-21%	-7%	·	·
COc1ccc(CCN2CC(C#N)=C3c4cc(OC)c(OC)cc4CCN3C2)cc1OC	-4%	-4.0%	?	·	0%	?	0%	-6%
CCn1nc(C)c(NC(=O)/C=C/c2cnn(C)c2)c1C	-2%	-2.1%	5%	-2%	-12%	4%	-13%	-2%
COc1ccc(NC(=S)NNC(=O)c2ccc(S(=O)(=O)N3CCOCC3)cc2)cc1	-26%[46.1 µM]	·	7%	-5%	-18%	·	-9%	0%
O=C1/C(=C/c2ccccn2)SC(=S)N1c1cccc(O)c1	·	·	3%	·	30%	·	32%	1%
Cc1cccc(OCCn2c(SCC(=O)O)nc3ccccc32)c1	·	-4.7%	·	1%[46.1 µM]	-12%	7%	·	·
Cc1nc(N2CCOCC2)c2c(C)c(C(=O)Nc3ccccc3Cl)sc2n1	5%[46.1 µM]	·	·	9%	3%	·	0%	0%
CCCOC(=O)C1[C@H]2C(=O)N(CCCOC)C[C@]23C=C[C@H]1O3 (stereo partly drawn)	10%	7.9%	3%	0%	10%	-1%	6%	0%
CN1CCN(CCC2Oc3cc([N+](=O)[O-])ccc3NC2=O)CC1 (stereo not drawn)	-15%[46.1 µM]	·	3%	2%	2%	·	-15%	-1%
Cc1cccc2cc(C#N)c(SCC(=O)N3CCC(C)CC3)nc12	4%	-11%	5%	-10%	0%	-13%	3%	-2%
Cc1cc(C)n2nc(SCC(=O)NC(=O)c3ccccc3Cl)nc2n1	27%	·	·	7%	-7%	·	31%	2%
Cn1ncc(Cl)c1C(=O)Nc1ccc2c(c1)CCC2	·	·	-8%	·	24%	·	-11%	-1%
COc1cccc(C(=O)CC2(O)C(=O)Nc3ccc(Cl)cc32)c1 (stereo not drawn)	?	-4.3%	·	-8%[46.1 µM]	5%	5%	·	·
CCN(CC)C(=O)CCC(=O)Nc1ccc(C(=O)OC)cc1	11%	1.5%	-7%	-16%	-10%	4%	-1%	0%
CCOC(=O)C1(Cc2cccc(F)c2)CCN(C(=O)Cc2cccnc2)CC1	6%[46.1 µM]	·	0%	12%	-3%	·	-5%	2%
COC(=O)c1nc(-n2nc(C)cc2C)ccc1Cl	-5%	1.2%	-10%	2%	21%	2%	-22%	5%
O=C(NC(=S)Nc1cc(Cl)ccc1N1CCOCC1)c1ccc(-c2cccc(Cl)c2)o1	-22%	4.6%	7%	?	23%	7.9µM*	12%	2%
CCOC(=O)c1ccc(Nc2c(CC)c(C)nc3ncnn23)cc1	-14%	-6.6%	-1%	16%[14.3 µM]	-19%	-5%	7%	-16%
Cc1cc(NC(=O)CSCc2nc(-c3cccc(F)c3)oc2C)no1	·	-1.1%	-3%	·	-7%	-8%	8%	1%
CCOc1ccccc1NC(=O)CN1C(=O)C(=O)N(Cc2ccco2)C1=O	17%	·	·	?	-10%	·	-15%	1%
Later entries
SMILES	Marburg entry inh	Cruzain Triton	NS1 function inh	LASV entry inh	2A StopGo	Cruzain noTriton	RE007 growth inh	SARS PLpro yeast
CN(C)S(=O)(=O)c1ccc2c(c1)N(CC(=O)Nc1cccc(C(F)(F)F)c1)C(=O)CS2	·	-3.3%	·	9%[46.1 µM]	-6%	-18%	·	·
Nc1nonc1-n1nnc(C(=O)N/N=C/c2ccc(OCc3ccccc3)cc2)c1CN1CCCCC1	·	·	-39%	·	1%	·	-11%	12%
C1=CN2CCC1C(c1ccccc1)C2 (stereo not drawn)	?	1.9%	-6%	15%	5%	7%	18%	-13%
CCOc1ccc2oc(C(=O)NCC(c3ccco3)N(C)C)c(C)c2c1 (stereo not drawn)	-3%	·	·	?	-1%	·	6%	3%
COc1ccc2[nH]c3c(c2c1)CCN1C(=O)C(CC(=O)NCCN2CCOCC2)C[C@H](C(=O)N2CCOCC2)[C@@]31C (stereo partly drawn)	0%	·	·	·	-8%	·	-10%	-1%
Cc1ccc(S(=O)(=O)CCC(=O)OCC(=O)NC(N)=O)cc1	·	·	5%	·	-16%	·	17%	1%
CC(C)(C)OC(=O)N1CCC(CNC(=O)c2ccc(F)cc2)CC1	8%[46.1 µM]	·	-52%	-1%[46.1 µM]	-16%	·	-5%	2%
Cc1n[nH]c(=S)n(NC(=O)/C=C/C(=O)Nn2c(=S)[nH]nc(C)c2=O)c1=O	-3%[14.2 µM]	·	2%	14%	22%	·	-9%	0%
CSc1ccc(S(=O)(=O)NCc2ccc(C)cc2)cc1	0%	-2.2%	-2%	-3%	11%	5%	-5%	3%
CCOc1c2ccc(C(=O)NCC34CC5CC(CC(C5)C3)C4)cc2nn1CC	·	-0.1%	11%	·	-10%	8%	0%	5%
O=C(O)c1nn(-c2ccccc2C(F)(F)F)cc1O	·	·	?	·	-16%	·	-9%	-5%
Cc1cc2nc(-c3ccc(NC(=O)C(C)C)cc3)oc2cc1C	?	1.2%	?	-26%	31%[activator]	15%	-3%	-2%
COc1ccc(CNC(=O)[C@H](C)NC(=O)[C@@H]2Cc3ccccc3CN2)cc1	-18%[46.1 µM]	·	3%	-3%[46.1 µM]	7%	·	4%	-1%
